# AF4-AF9 inh – inhibitors of human MLL-AF4/AF9 interaction; P42568; AlphaScreen, biotin-AF4 peptide binding to FLAG-AF9; inhibition, % at 10 µM; actives 0.47% (n = 350,000); AID 651704;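 active = every replicate reaching a set inhibition limit, whatever the replicate mean, cut at about 25% in these data; inconclusive = mean inhibition reaches that limit but some replicates miss it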;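 note: 0% = plate neutral control median and 100% = total signal loss; the record names both 10 and 1 µM as test concentration; the first replicate is given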
# Target sequence (P42568 whole entry, looked up): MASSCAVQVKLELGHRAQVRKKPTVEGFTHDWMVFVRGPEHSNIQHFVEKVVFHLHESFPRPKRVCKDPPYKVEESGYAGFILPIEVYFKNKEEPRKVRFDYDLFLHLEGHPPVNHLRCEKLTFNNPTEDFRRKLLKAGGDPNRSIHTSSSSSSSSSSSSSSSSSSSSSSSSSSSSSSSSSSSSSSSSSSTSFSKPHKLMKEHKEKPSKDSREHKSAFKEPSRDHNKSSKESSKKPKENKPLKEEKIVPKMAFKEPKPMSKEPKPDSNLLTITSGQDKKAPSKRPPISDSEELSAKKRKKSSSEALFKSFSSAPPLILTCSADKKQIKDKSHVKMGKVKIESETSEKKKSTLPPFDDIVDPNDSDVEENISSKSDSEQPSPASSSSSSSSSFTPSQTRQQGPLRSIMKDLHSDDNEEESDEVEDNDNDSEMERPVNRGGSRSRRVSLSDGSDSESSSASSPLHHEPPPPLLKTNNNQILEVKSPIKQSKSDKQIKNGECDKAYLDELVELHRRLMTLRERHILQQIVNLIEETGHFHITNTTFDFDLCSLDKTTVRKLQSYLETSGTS
# Ecoli rRNA inh – inhibits bacterial ribosomal RNA function over humanized ribosomes; actives 1.6% (n = 350,000); GFP signal change (wild-type ribosome), % (concentration not given with the values); E. coli WT GFP vs humanized-ribosome RFP mutants, fluorescence, 24 h; hits give low values; DMSO median 0, no signal -100;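 active = significant combined selectivity score with lowered wild-type GFP, culture density cut under 30%, mutant RFP and density less affected; inactive = any of these conditions unmet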; note: one replicate is shown; some compounds called inactive have numbers as strong as hits
# Ecoli rRNA inh OD600 – also measured in Ecoli rRNA inh; calls as there; OD600 change, %; measured here: OD600 growth;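 optical density of the mix in the first replicate; 0 = DMSO median and -100 = no signal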
# Ecoli rRNA inh RFP – second read-out of Ecoli rRNA inh, no call of its own (marks repeat the call); RFP signal change, %; measured here: RFP humanized mutant strains;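 first replicate; 0 = DMSO median and -100 = no signal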
# * = called active by the depositor; u = inconclusive; & = joins results of further samples. Not all compounds are listed. The share of hits here may be higher or lower than overall.
SMILES,AF4-AF9 inh,Ecoli rRNA inh,Ecoli rRNA inh OD600,Ecoli rRNA inh RFP
Cc1noc(C)c1S(=O)(=O)Nc1ccc2c(c1)C(=O)N([C@H](C)CO)C[C@H](C)[C@@H](CN(C)C(=O)Cc1ccccc1)OCCCC[C@H](C)O2,0.2,-3.8,-4.4,4.8
NC(=O)c1c(N)[nH]c(C(=O)c2ccccc2)c1-c1ccccc1Br,-0.6,-1.4,6.1,22.3
CCN(CC)C(=O)C1=C(C)N(CCCN2CCCC2=O)C(=O)C(CC(=O)NCc2ccco2)C1 (configuration not stated),-3.2,19.1,14.1,0.6
CNC[C@@H]1Oc2cc(-c3ccccc3F)ccc2S(=O)(=O)N([C@H](C)CO)C[C@H]1C,2.4,3.6,3.7,2.1
CO[C@@H]1CC[C@@H]2CCOc3ccc(C#N)cc3C(=O)N(C)[C@H](C)C(=O)N(C)C[C@@H]1O2,1.9,0.6,5.2,0.4
C[C@H](O)C#Cc1cnc2c(c1)C(=O)N([C@@H](C)CO)C[C@@H](C)[C@H](CN(C)CC1CCCCC1)O2,2.4,3.9,3.7,-0.1
CCCCCCN1C[C@@H](O)[C@H](n2cc(-c3ccc(F)cc3)nn2)C[C@@H]1c1ccc(C)cc1,-2.2,5.2,5.7,-0.7
Cc1ccc(S(=O)(=O)N[C@H]2CC[C@@H](CCn3cc(C4CCCC4)nn3)O[C@H]2CO)cc1,0.0,-4.7,-8.6,2.4
CCC(=O)Nc1ccc2c(c1)C(=O)N(C)C[C@H](OC)[C@@H](C)CN(CCc1ccccc1)[C@H](C)CO2,1.5,-0.3,-12.3,-1.3
CCCNC(=O)Nc1ccc2c(c1)OC[C@H](C)N(C)C[C@@H](C)[C@H](OC)CN(C)C2=O,-0.8,-1.5,2.8,-0.1
CN(CC(=O)Nc1ccc(Cl)c(C(F)(F)F)c1)C(=O)c1ccccc1SCC(=O)N1CCCC1,13.0,-48.1,-70.1,-14.5
O=C(NCCc1ccncc1)[C@@H]1[C@@H](CO)[C@@H]2Cn3c(ccc(-c4ccc(F)cc4)c3=O)[C@H]1N2,-3.2,0.0,-3.4,-2.5
CN1C(=O)c2cc(NC(=O)Cc3cccs3)ccc2OC[C@H]2O[C@H](CC(=O)NCCCN3CCOCC3)CC[C@@H]21,-2.1,0.3,2.7,-0.8
O=C(NCC(F)(F)F)c1[nH]c(C(F)(F)F)nc1-c1ccccc1,9.8,-6.3,-11.4,2.1
O=C1N[C@H](c2ccccc2)COCc2cn(nn2)CC[C@H]1Cc1ccccc1,1.8,0.3,3.1,1.5
CC(C)NC(=O)Nc1cccc2c1O[C@@H](CN(C)S(=O)(=O)c1cn(C)cn1)[C@@H](C)CN([C@@H](C)CO)C2=O,-1.7,6.8,13.3,2.6
C[C@H](CO)N1C[C@H](C)[C@H](CN(C)C(=O)C2CC2)Oc2ncc(-c3ccccc3F)cc2C1=O,-0.8,3.0,11.6,-2.3
CO[C@@H]1CN(C)C(=O)c2cc(NS(=O)(=O)c3ccc(C)cc3)ccc2OC[C@@H](C)N(Cc2ccccn2)C[C@H]1C,2.8,-4.7,0.4,-1.0
C[C@H]1CN([C@@H](C)CO)C(=O)Cc2cc(NC(=O)CCCN(C)C)ccc2O[C@H]1CN(C)S(=O)(=O)c1ccc(Cl)cc1,0.6,-0.6,6.5,1.7
COc1ccc(-c2nc(CN3CCC(C(=O)NC4CCCc5ccccc54)CC3)c(C)o2)cc1OC (configuration not stated),u,7.1,0.2,0.9
C[C@@H]1CCCCO[C@H](CN(C)C(=O)CCC(F)(F)F)[C@@H](C)CN([C@@H](C)CO)C(=O)c2cc(NC(=O)Cc3ccccc3)ccc2O1,1.1,-5.5,-0.4,-1.9
COc1ccccc1CNc1nc(Nc2ccccc2Cl)c2sccc2n1,-2.4,21.5,-5.6,4.8
COCC(=O)N1C[C@H]2[C@@H](c3ccccc31)[C@H](CO)N2C(=O)C1CC1,-1.0,6.4,10.1,0.5
N#C[C@@H]1[C@@H](c2ccc(C3=CCCCC3)cc2)[C@H](CO)N1C(=O)C1CCOCC1,2.2,0.9,-0.9,-0.6
N#C[C@H]1N[C@@H](CO)[C@H]1c1ccccc1,-0.4,2.7,15.6,-1.3

# Four of the compounds above, with values under each structure:
# Below each compound – AF4-AF9 inh, Ecoli rRNA inh, Ecoli rRNA inh OD600, Ecoli rRNA inh RFP
- C[C@H]1CN([C@@H](C)CO)C(=O)Cc2cc(NC(=O)CCCN(C)C)ccc2O[C@H]1CN(C)S(=O)(=O)c1ccc(Cl)cc1
  0.6, -0.6, 6.5, 1.7
- COc1ccccc1CNc1nc(Nc2ccccc2Cl)c2sccc2n1
  -2.4, 21.5, -5.6, 4.8
- CN(CC(=O)Nc1ccc(Cl)c(C(F)(F)F)c1)C(=O)c1ccccc1SCC(=O)N1CCCC1
  13.0, -48.1, -70.1, -14.5
- C[C@H](O)C#Cc1cnc2c(c1)C(=O)N([C@@H](C)CO)C[C@@H](C)[C@H](CN(C)CC1CCCCC1)O2
  2.4, 3.9, 3.7, -0.1

# More entries
SMILES,AF4-AF9 inh,Ecoli rRNA inh,Ecoli rRNA inh OD600,Ecoli rRNA inh RFP
C/C=C/c1ccc([C@H]2[C@@H](CO)N3CCCCN(S(=O)(=O)c4cccs4)C[C@@H]23)cc1,-2.5,-7.4,-44.3,14.8
Cc1cn([C@H]2C[C@H](O)[C@@H](CNCc3cccn3-c3nccs3)O2)c(=O)[nH]c1=O,-5.0,25.9,14.6,4.1
COc1ccc(-c2ccc3n(c2=O)C[C@H]2[C@H](CO)[C@@H](C(=O)NCC4CC4)[C@@H]3N2S(C)(=O)=O)cc1,0.2,-1.3,0.2,-1.3
Cc1ccc(S(=O)(=O)N2C[C@@H](O)COC[C@H]3O[C@H](CC(=O)NCC4CCCCC4)CC[C@@H]32)cc1,29.6*,-9.8,-9.9,10.1
O=C(C[C@H]1CC[C@H]2[C@@H](COC[C@@H](O)CN2C(=O)c2ccccc2)O1)Nc1ccc(-c2ccccc2)cc1,-0.2,2.1,-26.5,3.6
CCCNC(=O)N1[C@H](CO)[C@@H](c2ccccc2-c2ccc(F)cc2)[C@@H]1C#N,0.5,14.1,-22.1,19.0
C[C@@H]1CN([C@@H](C)CO)C(=O)CCCn2cc(nn2)CO[C@H]1CN(C)S(=O)(=O)c1cccc(C#N)c1,0.3&-2.9,2.5&0.7,11.3&-1.6,-1.8&-1.1
COc1ccccc1C#Cc1ccc([C@H]2[C@@H](C#N)N(C(=O)C3CCC3)[C@H]2CO)cc1,2.6,-41.4,-65.0,-4.2
CCN1CC(=O)N2[C@H](C1)[C@H](c1ccc(-c3ccccc3F)cc1)[C@@H]2CO,5.9,2.3,11.3,0.3
C[C@H]1CN([C@@H](C)CO)C(=O)c2cccc(NC(=O)Nc3cccc4ccccc34)c2O[C@H]1CN(C)C(=O)Nc1ccc2c(c1)OCO2,9.4,-5.5,-3.9,5.6
Cc1cccc(S(=O)(=O)N2CCCCN3[C@@H](CO)[C@@H](c4ccc(C#CC(C)C)cc4)[C@@H]3C2)c1,3.6,-40.0,-32.7,-3.6
COc1ccccc1S(=O)(=O)N[C@@H]1CC[C@@H](CCn2cc(C3CCCCC3)nn2)O[C@@H]1CO,1.3,-7.5,-7.0,-0.3
CC(C)C#Cc1ccc([C@@H]2[C@@H](CO)N3CCCCN(C(=O)NC(C)C)C[C@@H]23)cc1,-4.5,-1.8,-4.6,0.1
Cc1ccccc1S(=O)(=O)N(C)C[C@@H]1OCc2ccccc2-c2c(n(C)c3ccccc23)C(=O)N([C@@H](C)CO)C[C@H]1C,1.1,2.0,7.1,0.4
COc1ccc(NC(=O)c2sc(=O)n(Cc3ccc4ccccc4c3)c2C)cc1OC,2.5,-3.1,-4.8,-2.0
CCCNC(=O)N[C@@H]1CC[C@@H](CCn2cc(C3CCCC3)nn2)O[C@@H]1CO,-1.3,3.0,5.9,-2.3
CCCNC(=O)N1[C@H](CO)[C@@H](c2ccccc2)C12CN(C(=O)CC)C2,-0.1,-0.6,4.2,-2.2
COc1ccc(CN(C)C[C@@H]2OCCCC[C@@H](C)Oc3ccc(NC(=O)Nc4cccc5ccccc45)cc3C(=O)N([C@H](C)CO)C[C@@H]2C)cc1,-7.8,-0.3,-5.6,1.8
CO[C@@H](CN(C)C(=O)Nc1ccc(Cl)cc1)[C@@H](C)CN(Cc1ccccc1Cl)[C@H](C)CO,-0.7,-27.6,-69.7,6.5
CCCCNC(=O)C1C(c2ccc(C(F)(F)F)cc2)=Nc2ccccc2N1C(=O)c1cccc(C(F)(F)F)c1 (configuration not stated),-2.2,2.8,13.4,-3.2
CCc1nc2c(OCc3cc(Cl)cc(Cl)c3)cccn2c1N(C)C(=O)CC(C)C,4.2,-15.4,-47.1,13.6
COc1ccc(S(=O)(=O)N2CCCC(C(=O)NCc3cccnc3)C2)cc1C (configuration not stated),-2.9,10.3,15.9,1.4
C[C@@H]1CN([C@@H](C)CO)C(=O)Cc2cc(NC(=O)CCN3CCOCC3)ccc2O[C@H]1CN(C)C(=O)Nc1ccccc1,-1.1,4.1,7.3,0.2
C/C=C/c1ccc2c(c1)O[C@H](CN(C)C(=O)NC1CCCCC1)[C@@H](C)CN([C@H](C)CO)S2(=O)=O,-1.6,-0.1,-7.3,-0.5
C[C@@H]1CCCCO[C@@H](CN(C)Cc2ccccc2)[C@@H](C)CN([C@H](C)CO)C(=O)c2cc(NC(=O)Nc3ccccc3)ccc2O1,-0.3,2.5,9.3,-1.1

# Some of these compounds in order of number of heavy atoms, falling:
SMILES,AF4-AF9 inh,Ecoli rRNA inh,Ecoli rRNA inh OD600,Ecoli rRNA inh RFP
C[C@H]1CN([C@@H](C)CO)C(=O)c2cccc(NC(=O)Nc3cccc4ccccc34)c2O[C@H]1CN(C)C(=O)Nc1ccc2c(c1)OCO2,9.4,-5.5,-3.9,5.6
C[C@@H]1CN([C@@H](C)CO)C(=O)Cc2cc(NC(=O)CCN3CCOCC3)ccc2O[C@H]1CN(C)C(=O)Nc1ccccc1,-1.1,4.1,7.3,0.2
COc1ccccc1S(=O)(=O)N[C@@H]1CC[C@@H](CCn2cc(C3CCCCC3)nn2)O[C@@H]1CO,1.3,-7.5,-7.0,-0.3

# Continuation:
SMILES,AF4-AF9 inh,Ecoli rRNA inh,Ecoli rRNA inh OD600,Ecoli rRNA inh RFP
CO[C@H]1CN(C)C(=O)c2ccc(NS(C)(=O)=O)cc2OC[C@H](C)N(Cc2ccccc2)C[C@H]1C,0.0,1.7,3.1,1.5
CC(C)NC(=O)N[C@@H]1C=C[C@H](CC(=O)NCCCN(C)C)O[C@H]1CO,-0.2,1.1,5.8,0.1
C[C@@H]1CN([C@@H](C)CO)C(=O)c2cccc(NC(=O)C3CC3)c2O[C@H]1CN(C)Cc1ccncc1,-6.8,1.8,-0.3,-2.1
COCC(=O)N1C[C@@H](C)[C@@H](OC)CN(C)C(=O)c2ccc(NC(=O)c3ccc(OC)cc3)cc2OC[C@H]1C,-0.7,-1.1,1.4,-0.6
C[C@@H]1CN([C@H](C)CO)C(=O)c2cccc(NC(=O)Nc3cccc4ccccc34)c2O[C@@H]1CN(C)Cc1ccc(C(=O)O)cc1,4.8,0.2,1.1,0.0
CC(C)c1cn(CC[C@@H]2CC[C@H](NC(=O)C3CCCCC3)[C@H](CO)O2)nn1,-0.6,1.2,4.2,1.4
CC1(C(=O)Nc2nccs2)CCN1C(=O)C1(c2ccccc2)CC1 (configuration not stated),0.7,5.1,13.3,-1.1
N#C[C@H]1N[C@H](CO)[C@H]1c1ccc(-c2cccc(F)c2)cc1,0.4,0.3,7.5,0.7
C/C=C/c1cnc2c(c1)C(=O)N([C@H](C)CO)C[C@H](C)[C@@H](CN(C)S(=O)(=O)c1ccccc1F)O2,0.0,-5.0,2.1,1.1
O=C(N[C@H]1CC[C@H](CCNS(=O)(=O)c2ccc(F)cc2)O[C@@H]1CO)c1cccnc1,0.4,-2.3,-9.4,-0.4
COc1ccc(S(=O)(=O)N[C@@H]2CC[C@@H](CC(=O)NCc3ccccc3F)O[C@H]2CO)cc1,0.0,-0.3,5.0,-6.3
C[C@@H]1CCCCO[C@@H](CN(C)CC2CC2)[C@@H](C)CN([C@H](C)CO)C(=O)c2cc(NS(C)(=O)=O)ccc2O1,-6.1,0.7,5.0,-2.7
CCCNC(=O)N1CC2(C1)[C@@H](c1ccccc1)[C@@H](CO)N2Cc1ccccn1,-3.0,4.4,8.8,-0.9
COc1cccc(NC(=O)N2CC(=O)N3[C@H](C2)[C@@H](c2ccc(C4=CCCC4)cc2)[C@@H]3CO)c1,-0.6,-12.5,-57.1,28.2
FC(F)(F)c1ccccc1Cc1c(-c2ccc(Cl)cc2)nc2c3ccccc3ccn12,-1.7,-3.1,-2.5,43.9
COc1ccccc1NC(=O)N1C[C@@H]2[C@H](c3ccccc31)[C@@H](CO)N2C(=O)C1CC1,-15.1,10.2,5.6,0.1
COc1ccc2c3c(n(C)c2c1)[C@H](CO)N(Cc1ccccc1F)CC31CCN(C(=O)C2CCCC2)CC1,-4.3,2.6,-12.3,-5.2
COCC#Cc1cnc2c(c1)C(=O)N([C@@H](C)CO)C[C@@H](C)[C@H](CN(C)Cc1ccccc1)O2,2.0,6.2,14.9,-2.7
CCCNC(=O)c1cc(C2CCCN(C(=O)c3ccc4c(c3)CCO4)C2)on1 (configuration not stated),0.0,-0.3,-10.7,-7.7
Cc1ccc(-c2ccc3c(c2)O[C@H](CN(C)C(=O)C2CCC2)[C@H](C)CN([C@@H](C)CO)S3(=O)=O)cc1,0.2,-15.9,-31.9,9.8
